Screening results (PubChem BioAssay)
KCNQ2 block – KCNQ2 channel blockers in CHO-K1 cells – cell-based, FluxOR thallium flux, B-score, primary screen (AID 2156); O88943; 20 min; hits give low values; only compounds with negative scores are shown here; some inactives read as strong as hits; B-score at 10 µM; 1.1% of 310,000 active;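 active = fluorescence ratio B-score at most minus 3 library SDs, with starting brightness B-score within 2 library SDs, cut at about -5.5 in these data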
Target sequence (O88943 whole entry, looked up): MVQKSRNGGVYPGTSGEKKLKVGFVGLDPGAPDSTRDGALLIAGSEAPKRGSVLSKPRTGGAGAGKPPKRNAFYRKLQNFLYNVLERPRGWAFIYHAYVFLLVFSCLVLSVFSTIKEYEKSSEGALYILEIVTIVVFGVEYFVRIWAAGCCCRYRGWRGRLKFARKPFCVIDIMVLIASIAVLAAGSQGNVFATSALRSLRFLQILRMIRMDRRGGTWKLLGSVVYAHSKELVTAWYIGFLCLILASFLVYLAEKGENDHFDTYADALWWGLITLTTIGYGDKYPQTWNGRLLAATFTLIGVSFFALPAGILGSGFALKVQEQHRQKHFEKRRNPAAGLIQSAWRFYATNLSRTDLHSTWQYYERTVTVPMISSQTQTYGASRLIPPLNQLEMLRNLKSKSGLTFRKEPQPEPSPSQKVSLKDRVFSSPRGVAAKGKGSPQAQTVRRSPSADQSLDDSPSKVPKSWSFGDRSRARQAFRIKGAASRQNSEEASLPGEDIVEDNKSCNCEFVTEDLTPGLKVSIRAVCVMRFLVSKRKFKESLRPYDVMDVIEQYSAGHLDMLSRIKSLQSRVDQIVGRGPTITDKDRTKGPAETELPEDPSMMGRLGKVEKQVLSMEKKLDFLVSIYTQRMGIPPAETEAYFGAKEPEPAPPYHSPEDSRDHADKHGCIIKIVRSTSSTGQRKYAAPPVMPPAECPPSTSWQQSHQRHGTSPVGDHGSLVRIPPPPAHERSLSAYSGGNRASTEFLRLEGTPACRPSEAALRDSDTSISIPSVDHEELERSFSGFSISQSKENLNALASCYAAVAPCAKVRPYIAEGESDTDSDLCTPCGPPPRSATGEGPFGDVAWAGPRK
KCNQ2 block baseline – also measured in KCNQ2 block; calls as there; B-score; measured here: initial fluorescence intensity artifact check;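 brightness before thallium and not channel activity; 0 = typical well and far values either way flag optical interference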
* = called active by the depositor; i = inactive.

Below each compound: KCNQ2 block baseline, KCNQ2 block
- CCNc1nc(SCCOc2ccc(Br)cc2)nc(N(C)C)n1
→ 1.7, i
- Cc1cc(NC(=O)CCCS(=O)(=O)c2nc(-c3cccs3)cc(C(F)(F)F)n2)no1
→ 0.74, i
- Cc1c(C(=O)OCc2ccc(F)cc2)sc2nc3n(c(=O)c12)CCC3
→ 0.33, i
- CC(=O)c1sc2ccccc2c1OC(=O)c1ccco1
→ 0.21, i
- COc1ccc(-c2nc(CS(=O)CC(=O)NCc3ccco3)c(C)o2)cc1OC (configuration not stated)
→ -0.26, i
- NCCS(=O)(=O)O
→ -1.4, i
- O=C(c1ccc(NS(=O)(=O)c2cccc(F)c2)cc1)N1CCCC1
→ 0.53, i
- Cc1ccn2cc(CCNC(=O)Cc3cccs3)nc2c1
→ 0.5, i
- CC(=O)C1C(c2ccc(F)cc2)NC(=O)NC1(O)C(F)(F)F (configuration not stated)
→ 1.8, i
- COc1ccc(N2CCN(C(c3ccccc3OC)c3nnnn3C3CCCC3)CC2)cc1 (configuration not stated)
→ 0.46, i
- CCOC(=O)N1CCN(C(=O)CCSc2ccc(Cl)cc2)CC1
→ 0.75, i
- Cc1c(C)c2ccc(O)c(CN3CCN(C)CC3)c2oc1=O
→ 0.31, i
- OC(COc1ccc(Cl)cc1)CN1CCN(c2ccccn2)CC1 (configuration not stated)
→ -0.74, i
- CCOC(=O)CC(NC(=O)c1cc2cccc(OC)c2oc1=O)c1cccc([N+](=O)[O-])c1 (configuration not stated)
→ 0.76, i
- Cc1ccnc(NC(=O)CN2C(=O)c3ccccc3S2(=O)=O)c1
→ 0.48, i
- CC(=O)N(c1cccc(C)c1)S(=O)(=O)c1ccc(Cl)cc1
→ -0.41, i
- O=C(c1ccc(F)cc1)N1C2CCC1CC(O)(c1ccccc1F)C2 (configuration not stated)
→ 1.4, i
- O=S1(=O)N=C(N/N=C/c2cccs2)c2ccccc21
→ -1.3, i
- Cc1ccc(Nc2nc(N)c([N+](=O)[O-])c(NCc3ccccc3)n2)cc1
→ -1.2, i
- CCN(CC(=O)NCc1ccc(Cl)cc1)C(=O)CNS(=O)(=O)c1ccc(NC(C)=O)cc1
→ 1.4, i
- COC(=O)c1cc2c(s1)-c1ccc(OC)cc1CC2
→ -0.01, i
- CCOC(=O)[C@@H]1[C@H]2COc3ccc(Br)cc3[C@@H]2N2C(=O)N(c3cccc(F)c3)C(=O)[C@@]12C
→ -1.9, i
- O=c1cc(CO)occ1OCc1cccc(F)c1
→ 0.23, i
- Cc1nn(CCc2n[nH]c(=S)n2-c2ccc(F)cc2)c(C)c1[N+](=O)[O-]
→ -0.28, i
- CCOc1cc(/C=N/NC(=O)c2cc(C)n(-c3ccc(F)cc3)c2C)ccc1O
→ -0.06, i
- Cc1noc(C)c1S(=O)(=O)Nc1ccc(C(=O)N2CCN(c3cccc(Cl)c3)CC2)cc1
→ 0.4, i
- O=C(Nc1cccc2ccccc12)N1N=CCC1c1ccccc1 (configuration not stated)
→ -1.9, i
- O=C(Nc1ccccc1)c1cc(-n2cnnc2)ccc1Cl
→ 0.03, i
- CCCCc1c(O)nc(SCC(=O)N2CCOCC2)n(-c2ccc(OC)cc2)c1=O
→ -1.1, i
- Cc1nnc2n1N=C(c1ccc(OC(F)F)cc1)C(C)S2 (configuration not stated)
→ 1.4, i
- Cc1ccc(/C=C/c2nc3sc(C(=O)O)c(C)c3c(=O)[nH]2)cc1[N+](=O)[O-]
→ 1.3, i
- CC(NCc1ccc(F)cc1)C(=O)NC1CCCCC1 (configuration not stated)
→ 0.9, i
- Cc1ccc(C(=O)C2C(=O)c3ccccc3C2=O)cc1
→ -0.07, i
- O=C(CNS(=O)(=O)c1ccc(F)cc1)N1CCN(c2ccc(F)cc2)CC1
→ 0.86, i
- COc1cc(CNC(C)(C)CO)cc(Br)c1OCc1ccc(Cl)cc1Cl
→ 1.2, i
- COc1ccc(OCC(=O)O/N=C(\N)c2ccc(OC)cc2)cc1
→ 1.6, i
- Cc1ccc(S(=O)(=O)N2CCN=C2SC(C)c2ccccc2)cc1 (configuration not stated)
→ -0.08, i
- CCOc1ccccc1OCC(=O)NNC(=O)Cn1cnc2c1c(=O)n(C)c(=O)n2C
→ -0.77, i
- O=C(CSc1ccccc1)NC1=NCCS1
→ 0.68, i
- O=C(CNC(=O)c1ccc(F)cc1)c1ccccc1
→ -0.47, i

Compounds above containing two or more sulfur atoms (four):
Below each compound: KCNQ2 block baseline, KCNQ2 block
- Cc1cc(NC(=O)CCCS(=O)(=O)c2nc(-c3cccs3)cc(C(F)(F)F)n2)no1
→ 0.74, i
- O=S1(=O)N=C(N/N=C/c2cccs2)c2ccccc21
→ -1.3, i
- Cc1ccc(S(=O)(=O)N2CCN=C2SC(C)c2ccccc2)cc1 (configuration not stated)
→ -0.08, i
- O=C(CSc1ccccc1)NC1=NCCS1
→ 0.68, i

Continued.
Below each compound: KCNQ2 block baseline, KCNQ2 block
- Cc1ccsc1C(=O)N1CC(=O)Nc2ccccc21
→ 0.68, i
- NS(=O)(=O)c1ccc(NC(=O)Nc2ccc(S(N)(=O)=O)cc2)cc1
→ 0.02, i
- Cc1cc(C)c2nc(SCC(=O)N3CC(=O)Nc4ccccc43)c(C#N)cc2c1
→ -0.27, i
- O=C(NCCCN1CCOCC1)C1Cc2c(ccc3ccccc23)O1 (configuration not stated)
→ 0.3, i
- Cc1nc([N+](=O)[O-])cn1Cc1cccc([N+](=O)[O-])c1
→ 1.9, i
- O=c1cc2c(nn1Cc1ccccc1)-c1ccccc1CC2
→ 3.7, i
- Cc1cc(C[n+]2cc(Cl)ccc2N)c2ncccc2c1
→ -1.1, i
- CN(C(=O)Nc1ccccc1)C1CCCc2ccccc21 (configuration not stated)
→ 0.69, i
- COc1ccc(C)cc1NC(=O)C/C(C)=N/NC(=O)Cc1cccc2ccccc12
→ 1.7, i
- CCn1c(CSCc2ccc(Cl)cc2)n[nH]c1=S
→ 1.3, i
- Cc1ccc(CNC(=O)CN(c2cccc([N+](=O)[O-])c2)S(=O)(=O)c2ccccc2)cc1
→ -1.9, i
- Nc1nc(C23CC4CC(CC(C4)C2)C3)[nH]c(=O)n1
→ 0.07, i
- O=C(/C=C/Nc1ccccc1F)c1ccc(Br)cc1
→ -1.1, i
- Cc1ccc(N=C(NOCc2ccc(Cl)cc2Cl)c2nonc2N)c(C)c1
→ -0.72, i
- CCCCC(=O)NNC(=S)NC(=O)c1ccc([N+](=O)[O-])cc1
→ -1.6, i
- CCC(C)NC(=O)CO/N=C/c1ccccc1OC(F)F (configuration not stated)
→ 0.16, i
- O=C(CCCN1C(=O)c2cccc3cccc(c23)C1=O)N1CCN(c2ccccc2)CC1
→ 0.14, i
- CN(c1ccc([N+](=O)[O-])cc1/C=N/NC(=O)COc1ccccc1)C1CCCCC1
→ 0.65, i
- N#CC1=C(S)N(c2ccccc2)C(c2ccc(-c3ccccc3Cl)o2)NC1=O (configuration not stated)
→ 0.56, i
- O=C(CN1CCN(c2ccc(F)cc2)CC1)Nc1ccccc1Br
→ -0.02, i
- S=C(Nc1ccccc1)Nc1cccc(Br)c1
→ 1.1, i
- O=c1oc(-c2cccc(C(F)(F)F)c2)nn1-c1ccc(C(F)(F)F)cn1
→ -0.97, i
- O=C(Nc1ccc2c(c1)OCCO2)C1CCCN(S(=O)(=O)Cc2ccccc2)C1 (configuration not stated)
→ -0.84, i
- CC(=O)NC1(C(F)(F)F)N=C(c2ccccc2)NC1=O (configuration not stated)
→ -0.83, i
- O=C(O)CN1C(=O)C(=O)N(Cc2ccc(Cl)cc2Cl)C1=O
→ 0.02, i
- COc1ccc(-n2nnc3c(=O)n(CC(=O)N4CCCCC4)cnc32)cc1
→ 0.35, i
- CNC(=S)N(CCO)Cc1cc2cc3c(cc2[nH]c1=O)OCO3
→ 2.6, i
- Cc1ccsc1C(=O)OCC(=O)N1CCOCC1
→ 0.01, i
- Cc1ccc(NC(=O)CN(C)C(=O)c2ccc(NC(=O)CC3SC(N4CCCC4)=NC3=O)cc2)cc1 (configuration not stated)
→ -1.6, i
- Cc1ccc(/C=C/C(=O)NCCc2ccccc2)o1
→ 0.09, i
- COc1ccccc1CCC(=O)N(C)C1CCCN(Cc2ccccc2F)C1 (configuration not stated)
→ -1.6, i
- O=C(Cn1[nH]c(=O)c2ccccc2c1=O)OCC(=O)N1CCc2ccccc2C1
→ 0.23, i
- CCNC(=S)Nc1ccc(S(=O)(=O)Nc2cc(C)nc(C)n2)cc1
→ 0.72, i
- COc1ccc2cc3c(N)nn(C(=O)Cc4c[nH]c5ccccc45)c3nc2c1
→ -0.57, i
- CCc1ccc(-n2c(=O)c3ccccc3n(CC(=O)NCc3ccco3)c2=O)cc1
→ -2.8, i
- COc1ccc2nc(C)cc(SCC(=O)O)c2c1
→ -0.51, i
- Cc1ccccc1N1C(=S)NC2c3ccccc3OC1(C)C2C(=O)N(C)C (configuration not stated)
→ 1.3, i
- CC(C)CN1CCN(Cc2nc(C(C)C)cs2)CC1CCO (configuration not stated)
→ -0.69, i
- COc1ccc(OC)c(C(=O)c2ccc(C(=O)N3CCN(Cc4csc(C)n4)CC3)cc2)c1
→ -1.4, i
- COc1ccc(-c2cc3cc(OC)c(OC)cc3cn2)cc1OC
→ 1.6, i

One compound at a time, from the list above:
O=C(Nc1ccc2c(c1)OCCO2)C1CCCN(S(=O)(=O)Cc2ccccc2)C1 (configuration not stated) across the screens: KCNQ2 block baseline: -0.84; KCNQ2 block: i
CCNC(=S)Nc1ccc(S(=O)(=O)Nc2cc(C)nc(C)n2)cc1 across the screens: KCNQ2 block baseline: 0.72; KCNQ2 block: i

(more compounds)
Below each compound: KCNQ2 block baseline, KCNQ2 block
- Cc1c(C(=O)O)sc(=S)n1-c1ccccc1
→ -0.1, i
- Cc1cccc(C)c1NC(=O)C(Cl)C(=O)c1ccccc1 (configuration not stated)
→ -1.1, i
- COc1ccc(NS(=O)(=O)c2cc3c(cc2C)N(C(C)=O)CCO3)cc1
→ 0.44, i
- Cc1cnn(C(=S)NCCc2ccccc2)c1
→ 0.01, i
- O=C(CSc1nc2ccccc2[nH]1)Nc1nc(-c2ccccc2)c(-c2ccccc2)o1
→ -3.1, i
- CCOC(=O)c1[nH]c(C)c(C(=O)OCC(=O)N2c3ccccc3CC2C)c1C (configuration not stated)
→ 0.16, i
- c1ccc(-c2noc(-c3cccc4ccccc34)n2)cc1
→ -1.3, i
- CN1CCN(C(=S)Nc2cccc(Cl)c2)CC1
→ 0.57, i
- O=C(Nc1ccccc1)NC1(C(=O)NCc2ccc3c(c2)OCO3)CCCCC1
→ -0.03, i
- CCN(CC)CCOc1ccc2c(c1)C(=NNC(=O)c1ccccn1)c1cc(OCCN(CC)CC)ccc1-2
→ -3.4*, -7.1*
- Cc1ccc(C)c(N2CCN(C(=O)CCCn3c(=O)c4cccn4c4cccnc43)CC2)c1
→ 1.4, i
- COc1ccc([C@H]2/C=C\CN(C(=O)c3ccc(C)cc3)[C@@H](C)C(=O)N2Cc2ccc(F)cc2)cc1
→ 0.86, i
- CN(C)CCCNc1nc2sc3c(c2c(=O)n1CCc1ccccc1)CCCCC3
→ -1.7, i
- Cc1ccc(NC(=O)c2ccc(CSc3nnc(C)s3)cc2)cc1
→ -0.76, i
- NS(=O)(=O)c1ccc(NC(=O)COC(=O)c2cn(-c3ccccc3)nc2-c2ccc(F)cc2)cc1
→ 1.3, i
- O=C(NCCN1CCOCC1)c1ccccc1-c1ccccc1
→ -0.07, i
- COCCNC(=O)c1ccccc1NC(=O)CN(c1ccc2c(c1)OCO2)S(C)(=O)=O
→ -0.67, i
- Cc1cc(C)cc(C(=O)NC(=S)Nc2ccc(-c3cc4ccccc4oc3=O)cc2)c1
→ 0.28, i
- CCc1sc(NS(C)(=O)=O)nc1-c1ccccc1
→ 0.47, i
- Cc1ccc(CN2C(=O)CCC2C(=O)NCCN2CCOCC2)cc1 (configuration not stated)
→ 0.56, i
- CCOc1ccc2nc(-c3ccccc3)[nH]c2c1
→ 2.7, i
- CCn1c(/C=C/c2ccc(O)cc2)nc2ccccc2c1=O
→ 2.2, i
- CCN(CC)C(=O)CC(c1cc(OC)c(OC)c(OC)c1)c1c(OC)cc(OC)c2c(-c3ccccc3)cc(=O)oc12 (configuration not stated)
→ -1.8, i
- Cc1nc2ccccc2c(=O)n1/N=C/c1cc(Br)ccc1O
→ 2, i
- COc1ccc(-n2ncc3c(=O)n(Cc4c(F)cccc4Cl)cnc32)cc1
→ -1.2, i
- Nn1c(SCc2cn3cc(Cl)ccc3n2)nnc1-c1ccncc1
→ 0.08, i
- O=S(=O)(NCc1cccs1)c1cccc(S(=O)(=O)N2CCCCC2)c1
→ 1.7, i
- O=C(O)CCc1nc(-c2ccc(Cl)cc2)no1
→ -0.76, i
- Cc1cccc(-n2nnc(C(=O)N3CCc4ccccc4C3)c2N)c1
→ 1.2, i
- O=C(COc1ccc2c3c(c(=O)oc2c1)CCCC3)NCc1ccccn1
→ -0.43, i
- O=[N+]([O-])c1ccc(CCn2ccnc2)cc1
→ -0.17, i
- CCCCCCCCOC(=O)CCc1c(C)[nH]c(=S)[nH]c1=O
→ -1.8, i
- CN(CC(=O)Nc1ccc(F)cc1)C(=O)COC(=O)Cc1cccs1
→ 0.04, i
- CCS(=O)(=O)N1CCC(C(=O)NCCN2CCN(Cc3ccccc3)CC2)CC1
→ 1.1, i
- Cc1ccc(CC(=O)N2CCN(C(=O)C3CCCO3)CC2)cc1 (configuration not stated)
→ 1.1, i
- Cc1ccc(NC(=O)c2cc(-n3cnnc3)ccc2Cl)cc1
→ 2.9, i
- Cc1ccc(C(=O)c2ccc([N+](=O)[O-])cc2)c(C)c1
→ -0.25, i
- Fc1ccc(Oc2ccnc(Cl)n2)c(Cl)c1
→ -0.61, i
- CCc1nnc(NC(=O)CN2CCCC(C)C2)s1 (configuration not stated)
→ 0.32, i
- O=C(C1CCC(CNS(=O)(=O)c2cccc3cccnc23)CC1)N1CCc2ccccc21 (configuration not stated)
→ 0.68, i
- CCN(CC)CCn1cnc2c1c(=O)[nH]c(=O)n2Cc1ccccc1
→ -0.55, i
- COc1ccc2oc(C(=O)Nc3nccs3)c(C)c2c1
→ -0.07, i

Only part of the results is shown. The share of hits here may be higher or lower than overall.
